# Source: PubChem
# RanGTP-Imp inh: inhibitors of RanGTP-importin-beta interaction, primary screen, biochemical, FRET, CFP-Ran, YFP-importin-beta, homogeneous | Ran GTPase (GTP-bound) - importin-beta complex | cell-free CFP-Ran/YFP-importin-beta FRET ratio | inhibition, % (test concentration not listed) | 300,000 compounds, 1.1% hits;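 active = most replicates above 15%; inconclusive = exactly half above 15%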;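 note: 0% = DMSO wells and 100% = Ran loaded with GDP instead of GTP; wells of about 40 µL received 100 nL stock; the first replicate is given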
# Vif TR-FRET: inhibitors of Vif binding to APOBEC3G peptide, primary screen, biochemical, TR-FRET, GST-Vif 1-94, biotin-A3G peptide, dose response retest (AID 1117319); 260,000 compounds, 0.57% hits; Virion infectivity factor (Human immunodeficiency virus type 1 group M subtype B (isolate …; one-dose inhibition, %; IC50 in µM for titrated hits; TR-FRET GST-Vif / biotin-A3G peptide binding; higher % means a stronger effect; test concentration not given here; strong numbers were not always called active;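 active = above the screen mean plus three standard deviations and confirmed in dose response; inconclusive = results disagree or hit not tested in dose response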;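 note: Vif residues 1-94 fused to GST binding biotinylated APOBEC3G peptide 110-148; 0% = full assay without inhibitor and 100% = GST in place of GST-Vif; retest series ran down from 100 µM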
# T cruzi repl: inhibitors of intracellular T. cruzi growth, primary screen, luminescence, NIH3T3 host cells. T. cruzi beta-gal in NIH3T3, 90 h. inhibition, % (test concentration not listed). 300,000 compounds, 1.4% hits;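 active = mean inhibition across valid replicates above about 55%, limit read from the data; inconclusive = mean below that limit but half or more replicates reach it; inactive = mean below it, under half of replicates reach it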;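 note: signal also drops with host cell toxicity which is not excluded here; 0% = plate median of DMSO wells and 100% = zero luminescence signal; higher percent means less beta-gal luminescence so fewer parasites; stock transfer was 50 nL into about 50 µL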
# AF4-AF9 inh: inhibitors of AF4 peptide binding to AF9, primary screen, biochemical, AlphaScreen, biotin-AF4 peptide, FLAG-AF9, single point. 350,000 compounds, 0.47% hits. inhibition, % at 10 µM;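 active = every replicate reaching a set inhibition limit, whatever the replicate mean, cut at about 25% in these data; inconclusive = mean inhibition reaches that limit but some replicates miss it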;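 note: 0% = plate neutral control median and 100% = total signal loss; the record names both 10 and 1 µM as test concentration; the first replicate is given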
# Target sequence (P42568 whole entry, looked up): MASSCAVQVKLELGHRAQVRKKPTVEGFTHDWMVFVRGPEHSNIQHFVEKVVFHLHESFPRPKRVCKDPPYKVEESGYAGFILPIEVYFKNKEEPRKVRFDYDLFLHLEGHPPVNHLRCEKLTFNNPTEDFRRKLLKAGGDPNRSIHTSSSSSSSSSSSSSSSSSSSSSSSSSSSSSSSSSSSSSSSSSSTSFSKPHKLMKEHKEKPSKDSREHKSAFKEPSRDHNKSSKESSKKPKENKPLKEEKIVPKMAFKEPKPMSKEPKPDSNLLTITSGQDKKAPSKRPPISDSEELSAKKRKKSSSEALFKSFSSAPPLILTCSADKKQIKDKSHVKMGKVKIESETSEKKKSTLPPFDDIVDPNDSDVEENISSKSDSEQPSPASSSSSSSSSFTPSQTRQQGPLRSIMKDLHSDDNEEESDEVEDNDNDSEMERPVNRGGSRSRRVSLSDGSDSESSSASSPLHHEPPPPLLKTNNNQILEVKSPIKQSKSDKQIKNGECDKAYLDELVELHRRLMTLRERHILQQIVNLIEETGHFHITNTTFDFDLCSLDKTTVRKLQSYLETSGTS
# Beta cell apopt: inhibitors of cytokine-induced beta cell apoptosis, primary screen, luminescence; INS-1E cytokine-induced death, ATP luminescence, 48 h; percent of positive-control rescue, neutral wells zero; protection from apoptosis, % (no concentration beside the values); 300,000 compounds, 0.8% hits;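 active = all replicates at 75% or more, or half of them and the mean; inconclusive = half reach 75% but not the mean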;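 note: 0% = cytokine-treated negative control wells and 100% = positive control rescue; higher means more ATP so stronger rescue from cytokine killing; wells of about 40 µL received 100 nL stock; the first replicate is given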
# rRNA inh HTS: reduced GFP signal of wild-type E. coli, primary screen, bacterial rRNA inhibitor project, GFP/RFP fluorescence, OD600, single point; E. coli WT GFP vs humanized-ribosome RFP mutants, 24 h; hits give low values; DMSO median 0, no signal -100; GFP signal change (wild-type ribosome), % (concentration not given with the values); 350,000 compounds, 1.6% hits; AID 720706, 2013;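 active = significant combined selectivity score with lowered wild-type GFP, culture density cut under 30%, mutant RFP and density less affected; inactive = any of these conditions unmet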; note: one replicate is shown; some compounds called inactive have numbers as strong as hits
# Bfl-1 A1 inh: caspase 3/7 activation in MEF A1-2A-BIM cells, primary screen, A1 inhibitor project, cell-based, luminescence, HTS | Caspase-Glo 3/7 luminescence, 3 h; percent of clofoctol response, vehicle zero | caspase activation, % (test concentration not listed) | 330,000 compounds, 0.066% hits | AID 2462, 2010;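 active = over half of replicate activation scores above 10%, or exactly half above 10 with the replicate mean above 10; inconclusive = replicate mean below 10 yet half the replicates above 10; inactive = over half of replicates below 10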;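 note: wells of about 30 µL received 50 nL stock; many hits fall short of the cut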
# Calb FLC: C. albicans growth inhibition with fluconazole, primary screen, CaCi-2 strain, Alamar Blue fluorescence. C. albicans CaCi-2 (fluconazole-resistant clinical isolate) + fluconazole, 48 h. growth inhibition, % (concentration not given with the values). 300,000 compounds, 0.57% hits. AID 1979, 2009;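 active = most replicates above 75%; inconclusive = exactly half above 75%; inactive = most below 75%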;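 note: all wells also contain fluconazole at 8 µg/ml as a sub-toxic cotreatment; 0% = median of DMSO wells and 100% = median of geldanamycin control wells; wells of about 8 µL received 7.5 nL stock; the first replicate is given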
# rRNA inh HTS OD600: also measured in rRNA inh HTS; calls as there; OD600 change, %; measured here: OD600 growth;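 optical density of the mix in the first replicate; 0 = DMSO median and -100 = no signal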
# rRNA inh HTS RFP: recorded beside rRNA inh HTS, whose call it bears; RFP signal change, %; measured here: RFP humanized mutant strains;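 first replicate; 0 = DMSO median and -100 = no signal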
# The depositor's hits bear a star; u = inconclusive; x = not tested or not shown. These rows are one share of the data (hit frequency here may not be typical).
no.	canonical_smiles	RanGTP-Imp inh	Vif TR-FRET	T cruzi repl	AF4-AF9 inh	Beta cell apopt	rRNA inh HTS	rRNA inh HTS OD600	rRNA inh HTS RFP	Bfl-1 A1 inh	Calb FLC
1	Cc1sc2ncnc(N3CCC(C(=O)NNC(=O)COc4ccccc4Cl)CC3)c2c1C	3.0	-3%	-2	-8.4	-2	-3	0	3.6	-0.5	12
2	Cc1ccc(S(=O)(=O)N/N=C\c2cc3c(cc2Br)OCO3)cc1	1.9	3%	-12	x	0	x	x	x	3.0	4
3	Cc1csc(NC(=O)c2cc(=O)[nH]c3ccccc23)n1	4.1	15%	-9	-21	0	4	-2	-4.8	-0.5	12
4	CCOc1ccccc1CN1CCCC(CNS(=O)(=O)c2ccc(OC)cc2)C1 (stereo unspecified)	3.2	x	2	0.0	16	15	21	7.7	-0.6	21
5	CNS(=O)(=O)c1cccc(C(=O)OCC(=O)Nc2ccc(Cl)cc2F)c1	3.8	-5%	-8	-2.0	-5	10	11	-1.2	-0.5	1
6	COc1ccc(C2/C(=C(/O)c3ccc(Br)cc3)C(=O)C(=O)N2C)cc1 (stereo unspecified)	4.1	x	-17	-7.5	2	-2	-15	-1.6	-0.9	1
7	CC1Cc2nc(SCC(=O)N3CCCc4ccccc43)n(C)c(=O)c2S1 (stereo unspecified)	2.2	6%	12	7.8	-6	-18	-26	-3.6	-0.3	-1
8	Cc1ccc(SC(=O)c2c([N+](=O)[O-])c(C)nn2C)cc1	1.4	u	13	3.6	-33	-2	11	0.2	0.7	-11
9	Cc1cn2c(=O)c(C(=O)N3CCN(c4ccccc4Cl)CC3)cnc2s1	-2.7	5%	3	-2.7	1	4	2	0.5	-1.1	8
10	Cc1noc(NS(=O)(=O)c2ccc(N/C=C/C(=O)c3ccncc3)cc2)c1C	-4.7	4%	-7	x	-2	x	x	x	-0.6	0
11	COc1ccccc1CNCc1cc(OC)c(OC)c(OC)c1	-1.9	x	-4	-3.9	x	16	14	2.4	0.3	-9
12	CC(C)(C)NC(=O)c1ccc(NC(=O)CSc2ccccc2)cc1	2.2	0%	21	-0.6	-1	-7	-7	-2.2	-0.5	-2
13	COCCCNC(NC(=O)c1ccc(Br)cc1)C(Cl)(Cl)Cl (stereo unspecified)	-2.4	-8%	-45	1.8	-1	6	5	3.4	-0.4	-10
14	Cc1ccc(N2CCC(N3CCN(C)C(CCO)C3)CC2)cc1 (stereo unspecified)	-7.4	x	-1	6.2	x	7	16	4.3	0.2	-2
15	CN(C)CCCNC(=O)/C(=C\C=C\c1ccccc1)NC(=O)c1ccc([N+](=O)[O-])cc1	2.5	7%	24	9.3	0	x	x	x	2.1	-5
16	CCCCCCCCCCOC(=O)Cn1c(COc2ccccc2C)[n+](C)c2ccccc21	1.7	x	65*	x	110*	-54	-78	-22	0.8	u
17	O=C(Nc1ccc(C(F)(F)F)cc1-c1ccccc1)c1ccccc1	-0.3	18%	-21	x	1	x	x	x	0.4	9
18	COc1cc(CC(=O)OCC(=O)Nc2ccc(S(=O)(=O)N3CCCC3)cc2)cc(OC)c1OC	1.5	-9%	-5	x	2	x	x	x	-3.4	-3
19	CCOC(=O)c1ccc(OC(=O)CCCCCN=C(N)N)cc1	5.6	x	-8	1.3	x	1	9	0.4	-0.2	-12
20	O=C(c1ccc(Cn2cnnn2)cc1)N1CCCC(Nc2ccc(F)c(F)c2)C1 (stereo unspecified)	u	x	13	0.2	-6	3	3	-1.8	0.1	-2
21	CC(C)Cc1nnc(NC(=O)CCC(=O)NCCc2ccccc2)s1	-0.4	x	-1	0.4	-4	11	20	-0.1	-0.5	7
22	N#Cc1cccc(-n2c(-c3ccccc3)nnc2-c2ccccc2)c1C#N	-0.6	5%	30	8.0	-3	-5	-5	1.0	-1.0	22
23	CS(=O)(=O)c1ccc(Cl)c(NC(=O)COC(=O)CNC(=O)c2ccc3ccccc3c2)c1	-2.4	6%	-4	-2.9	x	0	9	1.3	-0.6	-12
24	Cc1cnc(NC(=O)CSc2nnc(CNc3ccc(F)cc3)n2CC2CCCO2)s1 (stereo unspecified)	-3.5	53µM*	9	x	5	x	x	x	1.6	8
25	CCOc1cc(N2CCOCC2)c(OCC)cc1NC(=O)CN1C(=O)NC(CC(C)C)C1=O (stereo unspecified)	3.2	-14%	-3	-0.3	-7	14	7	-5.2	0.3	-1

# Reprinted from the entries so far, 11 compounds:
no.	canonical_smiles	RanGTP-Imp inh	Vif TR-FRET	T cruzi repl	AF4-AF9 inh	Beta cell apopt	rRNA inh HTS	rRNA inh HTS OD600	rRNA inh HTS RFP	Bfl-1 A1 inh	Calb FLC
1	Cc1sc2ncnc(N3CCC(C(=O)NNC(=O)COc4ccccc4Cl)CC3)c2c1C	3.0	-3%	-2	-8.4	-2	-3	0	3.6	-0.5	12
2	Cc1ccc(S(=O)(=O)N/N=C\c2cc3c(cc2Br)OCO3)cc1	1.9	3%	-12	x	0	x	x	x	3.0	4
3	Cc1csc(NC(=O)c2cc(=O)[nH]c3ccccc23)n1	4.1	15%	-9	-21	0	4	-2	-4.8	-0.5	12
4	CCOc1ccccc1CN1CCCC(CNS(=O)(=O)c2ccc(OC)cc2)C1 (stereo unspecified)	3.2	x	2	0.0	16	15	21	7.7	-0.6	21
5	CNS(=O)(=O)c1cccc(C(=O)OCC(=O)Nc2ccc(Cl)cc2F)c1	3.8	-5%	-8	-2.0	-5	10	11	-1.2	-0.5	1
6	COc1ccc(C2/C(=C(/O)c3ccc(Br)cc3)C(=O)C(=O)N2C)cc1 (stereo unspecified)	4.1	x	-17	-7.5	2	-2	-15	-1.6	-0.9	1
7	CC1Cc2nc(SCC(=O)N3CCCc4ccccc43)n(C)c(=O)c2S1 (stereo unspecified)	2.2	6%	12	7.8	-6	-18	-26	-3.6	-0.3	-1
8	Cc1ccc(SC(=O)c2c([N+](=O)[O-])c(C)nn2C)cc1	1.4	u	13	3.6	-33	-2	11	0.2	0.7	-11
9	Cc1cn2c(=O)c(C(=O)N3CCN(c4ccccc4Cl)CC3)cnc2s1	-2.7	5%	3	-2.7	1	4	2	0.5	-1.1	8
10	Cc1noc(NS(=O)(=O)c2ccc(N/C=C/C(=O)c3ccncc3)cc2)c1C	-4.7	4%	-7	x	-2	x	x	x	-0.6	0
11	COc1ccccc1CNCc1cc(OC)c(OC)c(OC)c1	-1.9	x	-4	-3.9	x	16	14	2.4	0.3	-9

# The list goes on:
no.	canonical_smiles	RanGTP-Imp inh	Vif TR-FRET	T cruzi repl	AF4-AF9 inh	Beta cell apopt	rRNA inh HTS	rRNA inh HTS OD600	rRNA inh HTS RFP	Bfl-1 A1 inh	Calb FLC
26	COc1ccc(C(=O)Cn2nnc(-c3ccccc3F)n2)cc1	1.4	0%	-13	-1.7	-4	-31*	-7.8*	-3.9*	0.8	-1
27	c1ccc(Cn2c(NCc3ccco3)nc3ccccc32)cc1	0.8	-2%	-17	x	-6	x	x	x	0.1	50
28	CN(C)CCNC(=O)CN1C(=O)CSc2ccc(S(=O)(=O)N3CCCCC3)cc21	-2.4	x	8	-2.1	-5	6	11	-2.5	0.7	-5
29	Cc1ccc(C)c(OCCCN2CCCC2)c1	0.7	9%	37	x	-6	x	x	x	-0.3	-14
30	Cc1csc(NC(=O)C2=NN(c3ccccc3)C(=O)CC2)n1	-0.7	x	-6	-0.6	0	17	11	1.6	0.4	0
31	COc1cccc2[nH]c3c(N4CCC5(CC4)OCCO5)ncnc3c12	0.4	32%	13	0.4	-3	-20	-16	-2.2	0.2	-7
32	O=C(O)/C=C/C(=O)Nc1ccc(C2(c3ccc(NC(=O)/C=C/C(=O)O)cc3)c3ccccc3-c3ccccc32)cc1	-1.6	5%	-4	-1.4	0	-10	-1	5.0	0.2	4
33	Cc1c(NC(=O)CN2C(=O)C3C4C=CC(C4)C3C2=O)c(=O)n(-c2ccccc2)n1C (stereo unspecified)	9.3	28%	14	x	-4	x	x	x	0.6	1
34	O=C1NC2(CCCCC2)Oc2ccccc21	0.4	-2%	3	x	-6	x	x	x	-0.3	x
35	CC(C)(C)OC(=O)NCCCCCNC(=O)c1[nH]cnc1C(=O)N[C@@H](CCCCNC(=O)OC(C)(C)C)C(=O)OC(C)(C)C	1.2	x	-10	x	17	x	x	x	0.3	21
36	Cc1ccc(CN(C)c2ccc(S(=O)(=O)N3CCCC3)cn2)cc1	x	x	x	0.0	1	-2	-16	-0.7	-0.3	x
37	CCOCC(=O)Nc1sc2c(c1C(=O)OCC)CCCC2	-1.5	14%	8	x	-1	x	x	x	-0.8	0
38	Cc1c(Cl)c(=O)oc2cc(OCC(=O)N3CCCC(C)C3)ccc12 (stereo unspecified)	x	x	x	-2.4	-2	4	5	-3.5	0.0	x
39	COc1ccc(-n2c(O)c(/C=N/NS(=O)(=O)c3ccc(C)c([N+](=O)[O-])c3)c3ccccc3c2=O)cc1OC	x	u	2	-0.2	-1	6	6	-0.4	-0.1	8
40	CN(C1CCS(=O)(=O)C1)S(=O)(=O)c1cccc2nsnc12 (stereo unspecified)	-0.3	3%	-14	x	-4	x	x	x	-0.4	-1
41	Cc1ccc(-c2nc3ccccc3s2)cc1S(=O)(=O)N1CCCC1	0.8	17%	8	-21	0	3	-3	-1.2	0.5	-10
42	NC(=O)C1CCCN(C(=O)CCC(=O)c2cccs2)C1 (stereo unspecified)	x	-5%	x	-0.9	-9	2	17	-0.8	0.7	x
43	CC(=O)Nc1ccc(C(=O)N(C)c2ccccc2)cc1	1.1	30%	-10	x	-5	x	x	x	0.1	-2
44	CC(C)(C)C(=O)NC1CC2CCCC(C1)N2C(=O)Nc1ccc(Cl)cc1 (stereo unspecified)	0.6	x	-8	-5.2	1	5	-2	-2.6	0.5	7
45	Cc1cc(C)nc(SCC(=O)N2CCCCC2)n1	10	4%	3	x	-3	x	x	x	0.1	2
46	CCn1c(SCC(=O)Nc2ccc(NC(C)=O)cc2)nc2c([nH]c3ccccc32)c1=O	6.0	x	-2	-2.6	3	-5	3	-1.5	-0.6	3
47	COc1cc(C(=O)NC(=S)Nc2cccc(-c3cc4ccccc4oc3=O)c2)cc(OC)c1OC	1.8	1%	6	x	12	x	x	x	0.2	-4
